# PV pol inh = poliovirus RdRp elongation inhibitors, primary screen, biochemical, fluorescence polarization, total intensity; % elongation, % (compound at 16.7 µg/mL); Genome polyprotein (Poliovirus type 1 (strain Mahoney)), P03300; hit rate 0.66% among 150,000; poliovirus polymerase elongation; hits give low values; AID 588519, 2011; in the data active means % elongation below about 90%; further: some results filed as inactive read as strong as hits
# Target sequence (P03300 1749-2209 limits assumed): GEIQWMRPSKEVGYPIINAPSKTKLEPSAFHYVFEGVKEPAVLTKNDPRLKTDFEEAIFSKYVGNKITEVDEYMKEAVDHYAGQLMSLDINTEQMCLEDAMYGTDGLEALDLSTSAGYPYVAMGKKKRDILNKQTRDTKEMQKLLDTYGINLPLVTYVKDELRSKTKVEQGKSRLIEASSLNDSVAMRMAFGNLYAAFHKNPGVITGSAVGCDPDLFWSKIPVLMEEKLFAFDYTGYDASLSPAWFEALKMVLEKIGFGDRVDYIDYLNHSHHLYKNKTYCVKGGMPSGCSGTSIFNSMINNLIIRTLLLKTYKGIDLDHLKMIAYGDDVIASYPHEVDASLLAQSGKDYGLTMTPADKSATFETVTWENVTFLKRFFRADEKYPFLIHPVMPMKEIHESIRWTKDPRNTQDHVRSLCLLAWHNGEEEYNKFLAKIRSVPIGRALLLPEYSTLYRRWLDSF
# PV pol inh intensity = second read-out of PV pol inh, no call of its own (marks repeat the call); % elongation; measured here: total intensity read-out; formula for this scale not given here;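 total fluorescence in place of polarization; lower means less elongation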
# An asterisk follows results filed as active. Not all compounds are listed; the hit share may differ from the screen's.
mol,PV pol inh,PV pol inh intensity
CCCCCNC(=O)c1ccc2c(=O)n(CCc3ccccc3)c(=O)[nH]c2c1,107,109
Cc1cncn1CCc1nc2c3ccccc3nc(SCC(=O)Nc3ccc(F)cc3)n2n1,109,114
CCc1ccccc1Nc1nn2c(=O)c3ccc(C(=O)NC(C)c4ccccc4)cc3nc2s1 (stereo not given),103,107
O=C(C1CCN(S(=O)(=O)Cc2ccccc2)CC1)N1CCN(c2cccc(C(F)(F)F)c2)CC1,106,107
COc1ccc(OC)c(NC(=O)c2cn(CC(C)C)c(=O)c3cc(OC)c(OC)cc23)c1,106,109
O=C(CCN1CCN(CCO)CC1)Nc1ccc(Br)cc1,106,107
CCOC(=O)c1c(C)[nH]c(C)c1S(=O)(=O)NCC(=O)Nc1ccc(C)cc1C,104,112
O=C(CN1C(=O)CC(c2ccco2)Sc2ccccc21)Nc1cccc(C(F)(F)F)c1 (stereo not given),104,104
CCOC(=O)c1[nH]c(C)c(CCC(=O)Nc2ccc(C(C)=O)cc2)c1C,104,107
COc1cc(OC)cc(C(=O)Nc2ccc3c(c2)N(C2CCCC2)C(=O)c2ccccc2S3)c1,100,95
CCN(CCCNC(=O)c1cc(Nc2ccc(OC)cc2)nc2ccccc12)c1cccc(C)c1,110,109
COc1ccccc1N1CCN(C(=O)Cn2c(=O)nc(-c3ccccc3)c3ccccc32)CC1,107,110
CN1CCN(c2oc(-c3ccc(COc4ccc(Cl)cc4)o3)nc2C#N)CC1,105,99
Clc1ccc(-c2noc3ncnc(NCCc4ccccc4)c23)cc1,106,113
CCc1ccccc1-n1c(N)c(C(=O)OC)c2nc3ccccc3nc21,102,106
O=C(CSCc1cnn(-c2ccccc2)c1-n1cccc1)NCc1ccccc1F,103,108
Cc1ccc(-n2c(SCC(=O)Nc3ccc4c(c3)OCCO4)nc3c([nH]c4ccccc43)c2=O)cc1,106,103
CC(C)COc1ccc(C(=O)Nc2cccc(-c3nc4ccccc4[nH]3)c2)cc1,104,110
COc1ccccc1CC(=O)Nc1ccc2nc(Nc3cccc(Cl)c3)cc(C)c2c1,111,98
COc1cc(OC)c(OC)cc1/C=C/c1nc2cc3ccccc3cc2c(=O)n1-c1ccccc1Br,136,134
CCOC(=O)c1cnc2c(C)c(Cl)ccc2c1Nc1ccc(N2CCOCC2)cc1,106,105
COc1nnc(-c2ccc(N3CCCCC3)c(NC(=O)c3ccc(Cl)cc3)c2)c2ccccc12,103,109
CCc1ccc(NC(=O)c2sc(-n3nc(C)c(Cc4ccc5c(c4)OCO5)c3C)nc2C)cc1,99,101
O=C(NCc1ccccc1)C1CCCN(S(=O)(=O)c2cccc3nsnc23)C1 (stereo not given),105,113
CC(C)c1ccc(Nc2cc(C(=O)NCCCN(C)Cc3ccccc3)c3ccccc3n2)cc1,102,92
CCCNC(=O)Cn1c(=O)n(CC2CCC(C(=O)NC)CC2)c(=O)c2sccc21 (stereo not given),104,113
Cc1cccc(NC(=O)C2CCCN2S(=O)(=O)c2ccc3nc(-c4ccccc4)[nH]c3c2)c1 (stereo not given),111,112
Cc1ccc(CN2CCSc3ccc(C(=O)N4CCN(c5cc(C)ccc5C)CC4)cc32)cc1,107,110
O=C1Nc2ccccc2N/C1=C\c1ccc2ccccc2n1,105,107
CCOc1ccccc1-c1noc(CSc2nnc(-c3ccccc3)n2-c2cccc(C)c2)n1,111,116
CCc1cccc(NC(=O)c2ccc3c(c2)N(Cc2cccc(Cl)c2)C(=O)c2ccccc2S3=O)c1 (stereo not given),110,106
CCc1ccc(NC(=O)CCn2c(-c3ccc(OC)cc3)cc(C(C)=O)c2C)cc1,101,109
COc1ccc2c(c1)cc1c(=O)n(CC(=O)NC(C)C)nc(C)n12,106,108
Cc1ccccc1Cn1c(=O)n(Cc2ccco2)c(=O)c2sc3ccccc3c21,105,109
Cc1cc(C)c(S(=O)(=O)NCC(c2ccco2)S(=O)(=O)c2cccs2)c(C)c1 (stereo not given),108,114
CCC(=O)NCCc1nc2cc(NC(=O)c3cccc(Br)c3)ccc2n1C,104,93
Cc1ccc(C(=O)Nc2ccccc2F)cc1S(=O)(=O)N1CCOCC1,104,107
COc1ccc(NC(=O)C2CCCN(S(=O)(=O)c3ccc4c(c3)CCCC(=O)N4)C2)cc1OC (stereo not given),106,111
Cc1ccc(S(=O)(=O)c2c(Nc3ccc(C)c(C)c3)sc(C(=O)c3ccc4c(c3)OCO4)c2N)cc1,103,105
COc1cccc(-c2cc(C(=O)NCc3ccccc3)[nH]n2)c1,102,102
O=C(Cn1c(=O)c2ccccc2n(CC(=O)Nc2ccc(F)cc2F)c1=O)NCCc1ccccc1,114,119
Cc1ccn2c(=O)cc(COc3cccc(NC(=O)Nc4cccc(Cl)c4C)c3)nc2c1,105,120
CCOc1ccc(C(=O)c2oc3ccccc3c2NC(=O)c2cc(-c3ccc(C)cc3)on2)cc1,106,103
CCN1CCOC(=O)C1CC(=O)Nc1cc(Cl)ccc1C (stereo not given),102,104
O=C(c1cnc(N2CCCCC2)c2ccccc12)N1CCN(c2ccc(Cl)cc2)CC1,102,110

# Part of the list above, with values under each structure:
# Each structure is followed by: PV pol inh, PV pol inh intensity
Cc1ccccc1Cn1c(=O)n(Cc2ccco2)c(=O)c2sc3ccccc3c21
  105, 109
Cc1cc(C)c(S(=O)(=O)NCC(c2ccco2)S(=O)(=O)c2cccs2)c(C)c1 (stereo not given)
  108, 114

# (cont.)
mol,PV pol inh,PV pol inh intensity
CCOc1ccc(C(=O)NCCc2csc(-c3cccnc3)n2)cc1,100,105
COc1cc(-c2nnc(SCC(=O)N(C)C3CCCCC3)o2)cc(OC)c1OC,107,107
CC1=C(C(=O)Nc2ccc(Cl)cc2)C(c2ccccc2)n2ncc(C(=O)Nc3ccccc3)c2N1 (stereo not given),103,106
Cc1ccc(C)c(Cn2c(C3CC(=O)N(c4ccccc4C)C3)nc3ccccc32)c1 (stereo not given),104,99
O=C(CN1C(=O)COc2ccc(S(=O)(=O)N3CCCC3)cc21)N1CCN(c2ccccc2F)CC1,106,110
CCCCOc1ccc(CNC(=O)c2ccc(NC(=O)N3CCSc4ncccc43)cc2)cc1,108,105
CN1CCN(C(CNC(=O)C(=O)Nc2ccccc2C#N)c2ccc3c(c2)OCO3)CC1 (stereo not given),106,106
O=C(CSc1nc(-c2ccc(F)cc2)[nH]c1-c1ccc(F)cc1)Nc1ccc2c(c1)OCO2,115,109
CCOc1ccccc1CNC(=O)CCCN1C(=O)CCn2nc(-c3cccn3C)cc21,104,110
CC1(C)CC(=O)c2cc(-c3nc(-c4ccc(F)cc4)cs3)c(=O)[nH]c2C1,110,107
CCOc1cc(CNC(=O)c2sc3ncnc(N(C)C4CCCCC4)c3c2C)ccc1OC,96,94
CSc1nc2c([nH]c3ccccc32)c(=O)n1-c1ccc(C)cc1,103,106
O=C(CSc1nc2c([nH]c3ccccc32)c(=O)n1-c1cccc(Cl)c1)N1CCCC1,111,114
COc1c(Cl)cc(C(=O)Nc2cc(-c3nc4ccccc4[nH]3)ccc2C)cc1Cl,106,112
COc1cccc(NC(=O)CN(C)S(=O)(=O)c2cccs2)c1,108,114
Cc1ccc(S(=O)(=O)c2nnn3c2nc(NCc2cccs2)c2sccc23)cc1,113,95
COCCNC(=O)C1=CC(c2ccc3c(c2)OCO3)=NS(=O)(=O)N1C,109,102
COc1ccc(C2CC(=O)N(Cc3cccc(F)c3)c3ccccc3S2)cc1 (stereo not given),106,101
COc1ccc2c(Sc3ccccc3)c(C(=O)N3CCC(C)CC3)[nH]c2c1,114,114
Cc1nnc(N2CCC(C(=O)NC3CCCCC3)CC2)c2nn(-c3ccccc3)c(C)c12,107,103
COc1ccc2c(Sc3ccc(C)cc3)c(C(=O)NCC(C)c3ccccc3)[nH]c2c1 (stereo not given),106,112
COc1ccc(-c2n[nH]c3c2cnc2cc(OC)c(OC)cc23)cc1,112,105
O=C(Nc1ccc(Cl)cc1)c1ccc2c(c1)N(Cc1ccccc1)CCS2,109,114
Cc1ccc2oc(=O)c3cnn(CC(=O)N4CCN(c5ccccc5F)CC4)c3c2c1,108,110
COc1ccc(NC(=O)c2ccc3snnc3c2)cc1OC,106,113
Cc1ccc(C)c(Cn2cc(S(=O)(=O)c3ccc(Cl)cc3)c(=O)c3cc(F)ccc32)c1,98,103
O=C(Cc1c(C(=O)O)[nH]c2ccccc12)Nc1cccc(C(F)(F)F)c1,107,108
COc1ccccc1CNS(=O)(=O)c1ccc2[nH]c3c(c2c1)CCCCC3,100,97
Cc1nnc(N2CCC(C(=O)NC(C)C)CC2)c2nn(-c3ccccc3)c(C)c12,100,94
CCOc1ccc(OC(=O)c2cn(-c3cccc(OC)c3)c(=O)c3ccccc23)cc1,110,106

# The last 2 entries of the section before come first, to join the parts.
mol,PV pol inh,PV pol inh intensity
Cc1nnc(N2CCC(C(=O)NC(C)C)CC2)c2nn(-c3ccccc3)c(C)c12,100,94
CCOc1ccc(OC(=O)c2cn(-c3cccc(OC)c3)c(=O)c3ccccc23)cc1,110,106
CC(=O)c1ccc(NC(=O)CSc2ccc(-c3cccs3)nn2)cc1,112,109
CCc1ccccc1NC(=O)C1(S(=O)(=O)c2ccc(Cl)cc2)CC1,109,113
CCOCCCNC(=O)c1c(NC(=O)c2cc(=O)c3cc(C)c(C)cc3o2)sc2c1CCC2,107,92
Cc1ccc(NC(=O)c2oc3ccc(S(=O)(=O)N4CCCCCC4)cc3c2C)cc1Cl,112,107
COc1ccc(Nc2ncnc3sc4c(c23)CCCC4)cc1,104,107
Cc1ccc2onc(CNC(=O)N3CCN(c4cccc(C(F)(F)F)c4)CC3)c2c1,101,105
COc1ccc(NC(=O)C2=C(C)Nc3nc(SCc4ccc(C)cc4C)nn3C2c2cccc(OC)c2OC)cc1 (stereo not given),107,116
CCc1ccccc1NC(=O)CN(c1cc(C(F)(F)F)ccc1Cl)S(=O)(=O)c1ccccc1,100,101
O=C(Cn1c(=O)c2ccccc2n(CC(=O)Nc2ccc(Cl)cc2)c1=O)NCCc1ccccc1,108,108
Cc1ccc(CCNC(=O)CN2CCN(Cc3ccc(Cl)cc3)C2=O)cc1,114,112
O=C(NCCN1CCN(c2cccc(Cl)c2)CC1)Nc1ccccc1,103,101
O=C(Nc1c(C(=O)c2ccccc2)oc2ccccc12)c1ccc(F)cc1,107,111
O=C(c1cnn(-c2ccc(F)cc2)c1-n1cccc1)N1CCN(c2ccc(F)cc2)CC1,112,116
COc1ccc(C2=C(Nc3ccc(C)cc3C)c3ccccc3C2=O)cc1,109,113
COc1ccc(Nc2cc(C(=O)NCCCN(C)Cc3ccccc3)c3ccccc3n2)c(OC)c1,104,106
COc1cccc(CNC(=O)Cn2c(=O)ccc3cc(S(=O)(=O)N4CCCC4)ccc32)c1,107,114
Cc1ccc2c(=O)cc(C(=O)N(Cc3ccccc3Cl)C3CCS(=O)(=O)C3)oc2c1 (stereo not given),105,91
CC(C)Sc1ncc(Cl)c(C(=O)N(Cc2ccc(N(C)C)cc2)C2CCS(=O)(=O)C2)n1 (stereo not given),109,112
CCOc1ccc(NC(=O)CN(c2ccc(C)cc2)S(=O)(=O)c2cccs2)cc1,108,108
COC(=O)c1cnc(N2CCN(c3ccccc3OC)CC2)c2ccccc12,110,109
Cc1ccc(-c2nnc(SCC(=O)N3CCCc4ccccc43)o2)cc1,109,110
COc1ccc(CNC(=O)c2cnc3cc(C)ccn3c2=O)cc1,114,120
CC(C)CCNC(=O)C(Cc1ccccc1)NS(=O)(=O)c1ccc2c(c1)c(=O)n(C)c(=O)n2C (stereo not given),107,109
COC(=O)c1sc2ncccc2c1-n1c(C)ccc1C,112,112
CC(C)Oc1ccc(C(=O)N(Cc2ccco2)c2ccccn2)cc1,111,107
O=C(c1ccco1)N1CCN(c2nc3c(F)cc(F)cc3s2)CC1,106,101
N#Cc1nc(/C=C/c2ccc(F)cc2)oc1NCc1ccc(F)cc1,111,113
CCC(=O)N1CCc2cc(S(=O)(=O)NC(Cc3ccccc3)C(=O)NCc3ccccc3)ccc21 (stereo not given),105,107
N#Cc1cc2c(nc1SCC(=O)Nc1ccc(OC(F)(F)F)cc1)C1CCN2CC1,107,105
Cc1ccc(Nc2nnc(-c3ccc(C)c(S(=O)(=O)N4CCOCC4)c3)c3ccccc23)c(C)c1,105,99

# Single records, from the list above.
# Shown for CCOc1ccc(NC(=O)CN(c2ccc(C)cc2)S(=O)(=O)c2cccs2)cc1 = PV pol inh = 108; PV pol inh intensity = 108
# Shown for CC(C)Oc1ccc(C(=O)N(Cc2ccco2)c2ccccn2)cc1 = PV pol inh = 111; PV pol inh intensity = 107
# Shown for N#Cc1nc(/C=C/c2ccc(F)cc2)oc1NCc1ccc(F)cc1 = PV pol inh = 111; PV pol inh intensity = 113

# Later entries:
mol,PV pol inh,PV pol inh intensity
COc1ccccc1CNC(=O)CCS(=O)(=O)c1ccc2c(c1)CC(C)N2C(=O)C1CC1 (stereo not given),121,112
COc1ccccc1C(=O)Nc1ccc(OCc2cc(=O)n3cc(C)sc3n2)cc1,101,99
Cc1ccc(-c2noc(CSc3nnc(-c4ccc(Cl)cc4)n3C)n2)cc1,110,109
COc1ccc(-n2ccnc(NCc3ccccc3OC)c2=O)cc1,114,112
CCCOCc1cc(CN2CCN(c3cccc(Cl)c3)CC2)c(O)c2ncccc12,119,131
CCOC(=O)c1cc(OC(=O)c2ccccc2Cl)n(-c2ccccc2)n1,104,100
Cc1ccc(N2CC(NC(=O)c3ccccc3C(F)(F)F)CC2=O)cc1C (stereo not given),115,112
COCCNC(=O)CCSc1nc(-c2ccc3c(c2)OCO3)cc(C(F)(F)F)n1,105,109

# High-throughput results as filed in PubChem.
